Screening data (PubChem)
EP2 modulator: modulators of human EP2 prostaglandin E2 receptor; P43116; EP2-expressing cells, cAMP HTRF FRET, PGE2 co-stimulation; induction, % at 25 µM; 260,000 tested, 0.83% active; AID 940;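 active = compounds whose cAMP rise, as percent of the full-agonist control response, exceeds 60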;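 also: rat C6 glioma line stably carrying human EP2 under a CMV promoter; the protocol text gives 20 µM as final concentration; 100% = response of wells given 1 µM PGE2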
TNF death inh: TNF-alpha cell death inhibition in Jurkat FADD-/- cells. Jurkat FADD-/- TNF necroptosis rescue, ATP luminescence, 24 h; 0 = TNF only, 100 = no-TNF cells. activation (protection from cell death), % at 10 µM. 220,000 tested, 0.068% active;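 active = activation, meaning protection from cell death, of at least 50% relative to plate controls; inactive = activation below 50%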;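 also: necroptosis triggered by 40 ng/mL TNF-alpha added together with compound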
L929 necroptosis: L929 zVAD cell death inhibition; 220,000 tested, 0.38% active; L929 zVAD necroptosis rescue, ATP luminescence, 24 h; with zVAD 60 µM; viability rescue, % at 10 µM;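 active = activation, scaled between plate controls, above about 75%, limit read from the data; inactive = activation under that limit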;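 also: 0% = zVAD with DMSO and 100% = DMSO alone without zVAD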
PERK inhibitor: human PERK inhibition, primary cell-based screen; 220,000 tested, 0.17% active; inhibition, % at 5.6 µM; CHO PERK-DD fusion, SEAP luminescence translation reporter; Q9NZJ5;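 active = inhibition above the mean inhibition of all tested compounds plus 3 SD, set separately per screening campaign, cut at about 2.9% in these data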;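 also: PERK kinase domain activated by AP20187 dimerizer at 100 nM; 0% = DMSO with dimerizer and 100% = rapamycin at 8.4 µM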
RBBP9 inhibitor: blocks human serine hydrolase RBBP9; O75884; recombinant RBBP9, FP-Rh probe fluorescence polarization; inhibition, % at 7.94 µM; 220,000 tested, 0.2% active; AID 1515;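 active = inhibition above the campaign mean of all tested compounds plus 3 SD, cut at about 14% in these data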;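 also: plate controls were DMSO wells with RBBP9 for no effect and wells lacking RBBP9 protein for full effect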
Target sequence (O75884 whole entry, looked up): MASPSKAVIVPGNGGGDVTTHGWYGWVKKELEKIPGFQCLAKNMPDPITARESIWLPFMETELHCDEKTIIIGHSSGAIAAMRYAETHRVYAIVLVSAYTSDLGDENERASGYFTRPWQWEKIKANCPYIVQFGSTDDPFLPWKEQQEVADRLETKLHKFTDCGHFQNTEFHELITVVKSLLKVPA
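System: RBBP9 protein / Buffer or medium: Tris/NaCl buffer pH 8.0 with 0.1% Pluronic / Probe or stimulus: Serine-hydrolase probe FP-Rh, 375 nM pre-mixing / Dosing: 7.94 µM single dose, 0.794% DMSO / Times: enzyme-compound preincubation 30 min, then probe labeling 45 min, 25 °C / Technique: fluorescence polarization (mP), excitation 525 nm, emission 598 nm / Replication: singlicate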
Hck-Nef inh: human Hck-Nef kinase inhibition; Recombinant Hck-YEEI plus Nef, Z-Lyte FRET kinase assay; inhibition, % at 20 µM; 220,000 tested, 0.68% active;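 active = Hck-Nef kinase inhibition above about 50%, limit read from the data; inactive = inhibition below that limit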;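 also: 0% = DMSO with Hck plus Nef and 100% = Hck alone without Nef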
Target sequence (P08631 whole entry, looked up): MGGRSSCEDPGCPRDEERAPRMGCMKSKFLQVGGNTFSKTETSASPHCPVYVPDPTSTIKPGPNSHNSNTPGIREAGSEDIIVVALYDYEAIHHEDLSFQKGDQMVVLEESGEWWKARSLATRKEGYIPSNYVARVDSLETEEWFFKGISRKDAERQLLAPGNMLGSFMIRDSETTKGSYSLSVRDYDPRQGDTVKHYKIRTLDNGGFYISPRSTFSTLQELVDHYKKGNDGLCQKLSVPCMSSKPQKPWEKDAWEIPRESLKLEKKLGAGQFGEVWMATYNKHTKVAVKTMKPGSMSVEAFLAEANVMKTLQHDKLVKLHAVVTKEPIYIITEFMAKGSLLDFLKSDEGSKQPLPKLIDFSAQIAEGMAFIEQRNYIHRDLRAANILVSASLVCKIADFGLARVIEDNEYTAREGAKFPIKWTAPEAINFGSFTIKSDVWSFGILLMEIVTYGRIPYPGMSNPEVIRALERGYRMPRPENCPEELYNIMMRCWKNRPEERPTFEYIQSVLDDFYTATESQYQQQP
PGE2 EP2 inh: blocks the human prostaglandin E2 receptor EP2; AID 1422; inhibition, % at 25 µM; 260,000 tested, 0.52% active; C6 glioma cells expressing human EP2, cAMP TR-FRET; cells stimulated with saturating PGE2; P43116;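 active = percent inhibition above 40 after rounding to a whole number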;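 also: rat C6 glioma host cells with rolipram phosphodiesterase inhibitor present; the protocol text gives 20 µM as final concentration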
* = called active by the depositor; / = no result given; & = joins results of further samples. Some of the compounds tested (hit frequency here may not be typical).

structure	EP2 modulator	TNF death inh	L929 necroptosis	PERK inhibitor	RBBP9 inhibitor	Hck-Nef inh	PGE2 EP2 inh
O=C(c1cccc(F)c1)N1C2C=CC(C2)C1(C(F)(F)F)C(F)(F)F (stereo not drawn)	13.9	0.0	0.1	1.0	-4.4	0.2	14.8
Cc1cnc(C(=O)OCC(=O)N(C(C)C)C(C)C)cn1	6.6	-1.0	0.2	0.3	-1.8	0.6	11.3
CCc1ccc(OCC(=O)NCCN(C)C)c(Br)c1	7.5	0.6	1.6	0.1	11.1	1.8	7.0
CCCc1noc2c1/C(=N\O)CCC2	15.4	-1.5	-0.1	2.1	-6.7	2.8	6.5
CCCS(=O)(=O)N1CCC(C(=O)N2CCN(Cc3ccccc3)CC2)CC1	26.4	-1.5	-0.1	0.5	0.1	0.6	16.3
Cc1ccccc1N1C(=O)CC(Sc2nnc(-c3ccccc3)o2)C1=O (stereo not drawn)	19.2	-8.9	17.8	-0.2	-4.8	-1.6	32.6
O=C1NC(O)=NC1(c1ccccc1)c1ccccc1	-5.0	/	/	/	/	/	10.7
COC(=O)C1=NN(C(=O)c2cccc(Br)c2)C(O)(c2ccc(Cl)cc2)C1 (stereo not drawn)	-10.7	0.0	-0.3	2.1	-7.3	-0.8	5.3

The listing continues:
structure	EP2 modulator	TNF death inh	L929 necroptosis	PERK inhibitor	RBBP9 inhibitor	Hck-Nef inh	PGE2 EP2 inh
CCCCCCNCc1cccc(Br)c1	47.1	0.1	-0.1	-0.3	0.7	0.2	-4.2
CCCC(=O)N1CCN(c2ccc(NC(=O)C(C)(C)C)cc2)CC1	-46.5&9.1	-0.8	0.4	1.4	-4.2	0.8	3.4&4.7
Cc1ccccc1OCC1Cn2c(nc3c2c(=O)[nH]c(=O)n3C)O1 (stereo not drawn)	8.4&4.1	-5.8	-0.2	0.3	0.2	1.2	8.4&12.8
O=C(N/N=C/c1c(Cl)cccc1Cl)c1cccc(F)c1	-6.6	-3.0	0.8	0.2	-7.7	-0.9	3.9
C=C(C)[C@H]1CC=C(C)/C(=N/NC(=O)CNc2ccccc2OC)C1	-14.8	-1.2	0.0	1.6	-3.7	-1.8	9.7
Nc1n[nH]c(-c2ccccc2)n1	20.5	0.3	0.0	1.0	4.6	-0.6	7.3
O=C(NCc1cccnc1)C1c2ccccc2C(=O)N1C1CCCCCCC1 (stereo not drawn)	36.9	1.5	1.0	-0.6	-1.4	0.3	6.5
CCC(C)n1c(C)nc2c(c1=O)c1nc3ccccc3nc1n2CCC1=CCCCC1 (stereo not drawn)	36.3	-0.5	0.7	0.2	8.3	2.3	5.0

More entries follow:
structure	EP2 modulator	TNF death inh	L929 necroptosis	PERK inhibitor	RBBP9 inhibitor	Hck-Nef inh	PGE2 EP2 inh
CC(=O)Nc1cccc(NC(=O)CSc2nnc(Cc3cccn3C)n2-c2ccc(F)cc2)c1	2.7	0.4	0.5	0.4	-1.6	0.5	13.2
COc1cccc(Nc2ncc(C(=O)O)c3ccccc23)c1	-16.4	-0.1	-0.2	1.3	-5.7	0.1	12.9
COc1ccc(N2C(=O)CSC23CCC(C(C)(C)C)CC3)cc1 (stereo not drawn)	14.4	0.6	0.2	0.9	1.4	0.9	3.8
COc1ccccc1Cn1nnc2c(=O)[nH]c(C3CCN(C(=O)c4ccc(F)cc4)CC3)nc21	7.6	-0.7	0.2	1.2	-10.3	1.6	10.2
CCc1nc(SCC(=O)c2cccs2)c2oc3ccccc3c2n1	25.4	-1.8	0.7	0.8	-1.9	-0.3	5.3
CC1(C)CC(=O)C=C(NCc2ccc(Cl)c(Cl)c2)C1	-1.6	-1.3	0.2	0.2	-6.8	1.9	1.7
CCOCCCn1c(=N)c(C(=O)NCc2ccc3c(c2)OCO3)cc2c(=O)n3cccc(C)c3nc21	-4.7	-7.8	-0.4	-0.7	-7.2	7.4	10.2
O=C(CCCN1C(=O)C2C3C=CC(C3)C2C1=O)N1CCN(c2ccccc2)CC1 (stereo not drawn)	11.1	-3.7	0.1	-0.3	-9.6	1.2	/

Further results:
structure	EP2 modulator	TNF death inh	L929 necroptosis	PERK inhibitor	RBBP9 inhibitor	Hck-Nef inh	PGE2 EP2 inh
O=C(Cn1c(=O)oc2ccccc21)NC(=O)NCc1ccccc1	18.3	-0.9	0.0	0.8	4.9	0.7	21.0
Cc1ccc(C(=O)Nc2ccccc2Oc2ccccc2)cc1[N+](=O)[O-]	48.5	-1.3	-0.1	0.0	-10.4	0.1	/
O=C(CSc1ccccc1C(=O)O)NCc1ccco1	10.2	-11.1	-0.1	0.9	-9.1	-1.6	10.1
Cc1ccc2cc(C#N)c(SCC(=O)N3CCCc4ccccc43)nc2c1C	16.8&37.2	5.5	0.1	0.0	-4.4	2.6	7.2
COc1cccc(C2CC(C(F)(F)F)n3ncc(C(=O)NC(C)(C)C)c3N2)c1 (stereo not drawn)	16.3	0.1	0.3	-1.2	-8.5	0.3	9.2
Clc1ccc(-c2ccnc(Oc3cc(Cl)ccc3Cl)n2)cc1	59.2	-0.9	-0.3	-0.2	-1.0	-1.4	14.5
CCC(C)Sc1nnc(CSc2nc3nc(C)cc(C)n3n2)o1 (stereo not drawn)	16.9	-2.2	0.3	0.0	-2.6	-1.0	11.4
COC(=O)c1cn(NC(=O)c2cccc(OC)c2)c(=O)c2ccccc12	20.0	-0.5	-0.3	-1.0	-9.9	-0.8	7.2

Following part.
structure	EP2 modulator	TNF death inh	L929 necroptosis	PERK inhibitor	RBBP9 inhibitor	Hck-Nef inh	PGE2 EP2 inh
CCC1CCCCN1CCCNC(=O)Cn1nc(-c2ccc(C)cc2)ccc1=O (stereo not drawn)	24.5	-6.5	0.1	-1.3	-8.7	0.4	6.5
Nc1nc2c(ncn2COCCO)c(=O)[nH]1	13.3&34.4&17.9	-0.3	2.5	1.4	-6.7	-1.8	14.1&10.5&11.3
CCOc1cc(C(=O)N2CCN=C2SC)cc(OCC)c1OCC	15.1	-0.4	-0.3	-0.7	0.9	12.8	4.9
O=C(OCc1ccc(C(=O)c2ccccc2)cc1)c1cccc(-c2nnc(-c3ccccc3)o2)c1	18.7	-11.6	0.3	0.0	-2.5	0.1	-0.2
CCOC(=O)C1CCN(C(=O)C23CC4CC(CC(C4)C2)C3)CC1	-19.2	-0.3	0.3	-0.5	-7.7	-0.5	9.5
C=C(C)C1Cc2nc(N)nc(C)c2C1 (stereo not drawn)	28.6	-0.8	1.2	0.7	-0.9	-0.3	5.2
CCCCn1c(SC(C)C(=O)c2ccc(OC)cc2)nc2cc(S(N)(=O)=O)ccc21 (stereo not drawn)	23.9	-0.1	0.0	0.5	-5.1	1.2	5.7
Cc1nc(N2CCN(c3ccccc3)CC2)[nH]c(=O)c1Cc1cccc2ccccc12	11.1	-1.7	-0.2	-0.1	-5.0	-1.0	/

Remaining list, next part
structure	EP2 modulator	TNF death inh	L929 necroptosis	PERK inhibitor	RBBP9 inhibitor	Hck-Nef inh	PGE2 EP2 inh
CCCCOC(=O)Nc1cccc(C(=O)OCC)c1	-20.6	1.0	0.4	-0.6	-13.8	0.2	10.2
COc1cc(OC)nc(Oc2ccccc2C(=O)Oc2ccc(C)cc2)n1	41.5	-2.4	-0.4	0.4	-7.2	0.9	9.2
c1ccc(CNc2ncnc3nc[nH]c23)cc1	-10.0	-1.6	0.3	0.7	-6.0	1.0	16.4
Cc1sc2ncnc(N3CCN(c4ncccn4)CC3)c2c1C	12.8	-3.4	0.9	-1.1	-7.9	1.1	16.0
CCC(C(=O)NC(C)(C)C)N(C(=O)Cn1nnc(-c2ccccc2F)n1)c1cccc2c1CCCC2 (stereo not drawn)	9.2	-3.3	-0.1	0.7	-4.1	0.9	6.5
c1ccc(-n2cnc3cc(NCc4cccs4)ccc32)cc1	-29.4	-6.5	84.8*	1.0	1.0	1.7	8.2
O=C(NCc1ccccc1)c1sc(=S)n2c1[nH]c(=O)c1ccccc12	-45.9	-0.5	0.4	1.2	-4.9	3.4	9.5
Cc1nn2c(c1-c1ccccc1)NC1=C(C(=O)CCC1)C2c1ccccc1 (stereo not drawn)	0.2	-1.1	0.2	0.2	-8.2	6.9	4.4

Structures from the list above with bromine:
structure	EP2 modulator	TNF death inh	L929 necroptosis	PERK inhibitor	RBBP9 inhibitor	Hck-Nef inh	PGE2 EP2 inh
CCc1ccc(OCC(=O)NCCN(C)C)c(Br)c1	7.5	0.6	1.6	0.1	11.1	1.8	7.0
COC(=O)C1=NN(C(=O)c2cccc(Br)c2)C(O)(c2ccc(Cl)cc2)C1 (stereo not drawn)	-10.7	0.0	-0.3	2.1	-7.3	-0.8	5.3
CCCCCCNCc1cccc(Br)c1	47.1	0.1	-0.1	-0.3	0.7	0.2	-4.2

More records follow:
structure	EP2 modulator	TNF death inh	L929 necroptosis	PERK inhibitor	RBBP9 inhibitor	Hck-Nef inh	PGE2 EP2 inh
COC(=O)c1ccc(Sc2ccccc2NS(=O)(=O)c2ccc(C)cc2)nc1	17.9	-5.6	-0.2	-0.7	-5.2	-1.4	7.1
O=C(Cc1cccs1)NNC(=S)NCc1ccc(Cl)cc1	36.9	-3.8	0.2	0.9	-5.4	-0.2	5.9
CSc1ccc(S(=O)(=O)NCc2ccccc2Cl)cc1	18.5	0.3	-0.2	0.7	-2.8	1.8	3.0
Cc1ccc2c(c1)[C@@H]1CN(C)CC[C@@H]1N2S(=O)(=O)c1ccc([N+](=O)[O-])cc1	28.0	2.1	0.4	-0.5	-11.1	-1.1	/
CCOC(=O)NC(NC(=O)OCC)C(=O)c1ccccc1	10.1	1.1	-0.2	0.3	-5.5	5.7	8.6
Cc1cccc(Nc2nnc(-c3ccc(C(=O)N4C[C@H]5C[C@H](C4)c4cccc(=O)n4C5)cc3)c3ccccc23)c1	21.5	-2.1	70.0	-0.5	2.4	0.7	5.2
CCCC(C)c1nnc(NC(=O)c2cc(C(=O)OC)cc([N+](=O)[O-])c2)s1 (stereo not drawn)	1.7	-0.9	0.3	1.6	-7.5	-0.8	2.5
CCCSc1nc(SCC(=O)NCc2ccccc2)c2c3c(sc2n1)COC(C)(C)C3	36.0	1.1	-0.6	-0.1	-4.7	-0.5	22.3

(listing goes on)
structure	EP2 modulator	TNF death inh	L929 necroptosis	PERK inhibitor	RBBP9 inhibitor	Hck-Nef inh	PGE2 EP2 inh
CCOC(=O)/C=C1\NC(C)(C)Cc2cc(OC)c(O)cc21	51.9	-1.8	0.0	0.3	-6.3	7.8	10.3
CCCCC(=O)Nc1cc(C(=O)NCCc2ccccc2)ccc1Cl	4.3	2.0	0.9	0.4	2.5	-0.7	13.4
O=C(Nc1ccc(F)cc1)Nc1nnc(-c2ccncc2)s1	-47.8	-9.8	53.6	-0.3	-9.4	3.0	16.1
Cc1cc(C)n(S(=O)(=O)Cc2ccccc2)n1	0.7	-0.2	0.0	1.6	-5.7	1.4	3.1
CCOC(=O)CSC1=C(C#N)C(c2ccccc2F)C(C(C)=O)=C(C)N1 (stereo not drawn)	22.9	-0.6	-0.2	-1.1	-5.8	5.9	14.9
